# High-throughput results: PubChem, ICCB-Longwood Screening Facility, Harvard Medical School
# MenB inh: blocks the Mycobacterium tuberculosis MenB enzyme. MenB enzyme assay, absorbance read-out; some hits fall short of the stated cut. actives 0.43% (n = 100,000). inhibition, %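 (about 12 µg/mL by stock and volumes)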. P9WNP5. AID 540299;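 active = mean of two replicates above 30%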;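 also: 0% = no compound and 100% = wells with inactive enzyme; the first replicate is given; strong numbers were not always called active; inactives centre near -10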
# Target sequence (P9WNP5 whole entry, looked up): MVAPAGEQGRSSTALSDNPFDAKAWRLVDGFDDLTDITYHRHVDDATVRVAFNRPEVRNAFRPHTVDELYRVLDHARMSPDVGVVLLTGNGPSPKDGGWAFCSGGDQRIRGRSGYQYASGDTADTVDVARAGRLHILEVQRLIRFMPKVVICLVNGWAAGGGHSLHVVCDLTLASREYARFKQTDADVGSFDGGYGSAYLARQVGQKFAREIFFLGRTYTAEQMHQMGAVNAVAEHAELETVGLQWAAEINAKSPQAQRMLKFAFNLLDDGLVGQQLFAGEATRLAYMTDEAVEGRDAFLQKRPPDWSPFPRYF
# MbtI inh: blocks the Mycobacterium tuberculosis siderophore enzyme MbtI; inhibition, %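 (about 17 µg/mL by stock and volumes)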; actives 0.89% (n = 100,000); purified MbtI enzyme, fluorescence intensity read-out; P9WFX0; AID 493033;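 active = above 50% in both replicates, above 80% if mildly self-fluorescent; inactive = the rest, strongly fluorescent compounds included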;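 also: 0% = mean of negative and 100% = mean of positive controls; one replicate is shown; some compounds called inactive have numbers as strong as hits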
# Target sequence (P9WFX0 whole entry, looked up): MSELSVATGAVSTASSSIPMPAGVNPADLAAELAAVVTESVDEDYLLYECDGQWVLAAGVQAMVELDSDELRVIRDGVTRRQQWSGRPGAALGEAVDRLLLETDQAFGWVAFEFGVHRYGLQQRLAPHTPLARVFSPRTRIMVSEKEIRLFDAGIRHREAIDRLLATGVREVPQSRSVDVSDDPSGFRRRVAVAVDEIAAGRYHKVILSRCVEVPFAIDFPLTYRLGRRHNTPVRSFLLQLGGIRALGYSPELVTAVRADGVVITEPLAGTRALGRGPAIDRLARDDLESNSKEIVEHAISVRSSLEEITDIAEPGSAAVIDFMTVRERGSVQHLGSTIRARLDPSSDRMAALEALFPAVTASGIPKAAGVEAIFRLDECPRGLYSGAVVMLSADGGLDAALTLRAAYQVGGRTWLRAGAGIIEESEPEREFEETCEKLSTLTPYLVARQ
# Polio RdRp inh: poliovirus RNA polymerase inhibition; P03300; poliovirus polymerase elongation, fluorescence polarization; hits give low values; % elongation, % (compound at 16.7 µg/mL); actives 0.66% (n = 150,000); AID 588519; in the data active = % elongation below about 90%; also: some results filed as inactive read as strong as hits
# Polio RdRp inh intensity: also measured in Polio RdRp inh; calls as there; % elongation; measured here: total intensity read-out; formula for this scale not given here;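 total fluorescence in place of polarization; lower means less elongation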
# * hit, by the source's call; nt = no result given. Rows are unselected; overall some 1.8% were active at least once.
# Value order: MenB inh	MbtI inh	Polio RdRp inh	Polio RdRp inh intensity
Cc1ccc(SCCNC(=O)C(C)C)cc1
    -22	-11	99	102
NNC(=O)CSc1ccccc1F
    -12	-2	102	100
CCSc1nnc(NC(=O)c2ccc(=O)n(C)n2)s1
    3	11	104	102
CCC1=C(C(=O)OC)C(c2ccc(Cl)cc2)n2ncnc2N1 (configuration not stated)
    -1	4	nt	nt
CC12CC3(C)CC(O)(C1)CC(C(=O)c1ccccc1)(C2)C3
    nt	-9	101	105
CCOC(=O)C1CCN(CC(O)COc2ccc3ccccc3c2)CC1 (configuration not stated)
    -15	-2	100	101
CCCNC(=O)C1CCCN(S(=O)(=O)N2CCC3(CC2)OCCO3)C1 (configuration not stated)
    4	-6	101	106
COC(=O)/C(=C(/O)CSc1nnnn1C)c1nc2ccccc2[nH]1
    -9	3	102	104
COc1ccc(/C=N/N=C2\NC(=O)C(CC(=O)Nc3ccccc3)S2)cc1 (configuration not stated)
    -33	-6	103	104
S=C(NCc1ccccc1)N1CCN(Cc2ccc3c(c2)OCO3)CC1
    -29	nt	100	107
C=CCNC(=O)C1CC1(c1ccccc1)c1ccccc1 (configuration not stated)
    -23	nt	99	98
CC(C)=CC(=O)Nc1nnc(Cc2ccccc2)s1
    -36	-1	102	103
Cc1ccc(CCNC(=O)C2CCCN(S(=O)(=O)c3cccs3)C2)cc1 (configuration not stated)
    -18	-26	104	103
Cc1ccc(C)c(CN(C2=NC3CS(=O)(=O)CC3S2)c2cccc(Cl)c2)c1 (configuration not stated)
    0	3	102	105
COc1ccc(C2OC(=O)C(C)=C(O)C2(C)C)cc1OC (configuration not stated)
    -8	nt	100	102
CC(=Nc1cccc(N2CCCC2=O)c1)C1=C(O)CC2(CCCCC2)CC1=O
    -13	6	102	106
CC(=O)N=C1SC2CS(=O)(=O)CC2N1Cc1ccccc1 (configuration not stated)
    -9	-14	103	105
Cc1nn(CCC#N)c2c1P(=O)(c1ccccc1)/C(=C1\N(C)c3ccccc3C1(C)C)C=N2 (configuration not stated)
    -285	26	106	107
O=S(=O)(CS(=O)(=O)c1ccc(Cl)cc1)c1ccc(Cl)cc1
    -16	-12	100	102
O=c1c2ccccc2[nH]c(=S)n1Nc1ccccc1
    -9	-3	99	103

# A draw from above in order of SMILES length, high to low:
# Value order: MenB inh	MbtI inh	Polio RdRp inh	Polio RdRp inh intensity
CCOC(=O)C1CCN(CC(O)COc2ccc3ccccc3c2)CC1 (configuration not stated)
    -15	-2	100	101
CC(=O)N=C1SC2CS(=O)(=O)CC2N1Cc1ccccc1 (configuration not stated)
    -9	-14	103	105
O=c1c2ccccc2[nH]c(=S)n1Nc1ccccc1
    -9	-3	99	103

# Other entries:
# Value order: MenB inh	MbtI inh	Polio RdRp inh	Polio RdRp inh intensity
COC(=O)c1cc(S(=O)(=O)NC2CCN(Cc3ccccc3)CC2)c[nH]1
    -2	16	103	105
CCc1ccc(CNCC2CCCO2)cc1 (configuration not stated)
    3	nt	105	108
C=CCN1C(=O)C(C(=O)O)C(=O)c2ccccc21 (configuration not stated)
    -231	-32	101	98
Cc1c(C(=O)NCCCN2CCOCC2)oc2ccc3c(c12)C(=O)CC1(CCCCC1)O3
    10	10	103	101
CC(C)(C)Cc1nc2ccccc2[nH]1
    -13	-2	107	137
O=C(NCCCN1CCN(CCCNC(=O)c2ccc(F)cc2)CC1)c1ccc(F)cc1
    0	-8	102	103
COc1ccc(Nc2cc(C(=O)NCc3ccco3)c3ccccc3n2)cc1
    -26	-42	100	105
Cc1ccc(-c2nn(-c3ccccc3)cc2/C=C/C(=O)OCC(=O)Nc2ccc3[nH]c(=O)[nH]c3c2)o1
    -25	-5	100	106
C/C(=N\NC(=O)C1CC1)c1ccc(OC(F)F)cc1OC(F)F
    -23	-7	103	106
Cc1cnc(C(=O)OCC(=O)c2ccc3[nH]c(=O)[nH]c3c2)cn1
    17	3	98	91

# For convenience, part of the list above.
# Value order: MenB inh	MbtI inh	Polio RdRp inh	Polio RdRp inh intensity
COC(=O)c1cc(S(=O)(=O)NC2CCN(Cc3ccccc3)CC2)c[nH]1
    -2	16	103	105
CCc1ccc(CNCC2CCCO2)cc1 (configuration not stated)
    3	nt	105	108
C=CCN1C(=O)C(C(=O)O)C(=O)c2ccccc21 (configuration not stated)
    -231	-32	101	98

# New compounds follow:
# Value order: MenB inh	MbtI inh	Polio RdRp inh	Polio RdRp inh intensity
Brc1cc2c(cc1CSc1nnc3ccccn13)OCO2
    -11	-14	101	102
CN(C)/C=C1\C(=O)c2ccc(Cl)cc2N(Cc2c(F)cccc2Cl)S1(=O)=O
    -21	-7	96	86
Cn1cccc1/C=N/n1cnnc1
    -35	53	101	102
Cc1ccc(S(=O)(=O)N(CC(=O)O)CC(=O)O)cc1
    -37	-14	105	101
CC(C)CNC(=O)COn1nnc2ccc(S(=O)(=O)N(C)C)cc21
    -10	3	103	104
Cc1oc2c(c1C(=O)NC(C)c1ccccc1)C(=O)c1ccccc1C2=O (configuration not stated)
    8	-2	102	104
CCOc1ccccc1NC(=O)CC1SC(=N)N(c2ccccc2)C1=O (configuration not stated)
    -8	8	101	101
O=C(O)CCc1nc2cccnc2n1C1CC1
    -14	-12	102	102
Cc1ccc2nc(-c3cc4ccccc4oc3=O)[nH]c2c1
    -51	-36	103	100
COc1cc2cc3c(=O)oc(-c4ccccc4F)nc3nc2cc1OC
    -7	nt	100	101
O=c1oc2cc(S(=O)(=O)NCCCO)ccc2c2ccc(S(=O)(=O)NCCCO)cc12
    -6	8	102	101
CC1CCCCN1C(=O)CSc1nnc2sc3ccccc3n12 (configuration not stated)
    -18	-6	101	100
COc1ccc(CC(=O)N=c2sc3ccccc3n2C)cc1S(=O)(=O)N1CCOCC1
    -21	-1	105	110
CCOC(=S)Nc1ccc(I)cc1
    11	5	106	97
N#CC(C#N)=Cc1cn(CC(=O)N2CCOCC2)c2ccccc12
    -84	6	102	104
O=C1CC(c2ccc(Cl)cc2)C2=C(CC(c3cccs3)CC2=O)N1 (configuration not stated)
    -20	-7	101	107
COc1cc2c(cc1OC)CN(Cn1nc(C(F)(F)F)n(C)c1=S)CC2
    -15	-8	100	98
COc1cc2c(cc1OBr)C(Cc1ccc(OC(C)=O)cc1)N(C)C2 (configuration not stated)
    7	nt	107	95
COc1cc(NC(=O)Nc2cccc3ccccc23)ncn1
    -40	-22	103	103
Cc1cc(C)cc(NC(=O)Oc2ccccc2N2CCCCC2)c1
    -3	2	100	98

# (next part)
mol | MenB inh | MbtI inh | Polio RdRp inh | Polio RdRp inh intensity
CC1CCCN(C(=O)c2cccc(S(=O)(=O)N3CCCC3)c2)C1 (configuration not stated) | nt | -10 | 106 | 110
Cc1ccsc1CCNC(=O)c1cc(S(=O)(=O)N2CCCCC2)c[nH]1 | -17 | -6 | 101 | 100
CCn1c(C(=O)N2CCC(C(=O)NCc3ccccc3)CC2)cc2sccc21 | 3 | -3 | 102 | 107
CC(NS(=O)(=O)c1ccc(Br)cc1)C(=O)NCc1ccco1 (configuration not stated) | 37* | 12 | 100 | 100
Cc1ccc2c(cnn2C(=O)CCC(=O)N2CCCCC2)c1 | -11 | 3 | 100 | 101
O=C(c1cc(Br)cc2c1OCC2)N1CCCCC1 | 4 | 3 | 105 | 101
CC(C)c1ccc(N(CC(N)=O)S(C)(=O)=O)cc1 | 18 | 11 | 99 | 103
COc1ccc(/C=N/n2cnc3scc(-c4cccs4)c3c2=O)cc1OC | -10 | -24 | 102 | 97
C=CCN(CC=C)C(=O)CSc1ccc(OCC)cc1 | -12 | 6 | 106 | 107
O=C(Nc1ccc(S(=O)(=O)N2CCCC2)cc1)C1COc2ccccc2O1 (configuration not stated) | -12 | -9 | 100 | 106
CCCCn1c(SCc2cc(=O)n3ccsc3n2)nc2cc(S(N)(=O)=O)ccc21 | 4 | 28 | 103 | 108
CCc1ccc(NC(=O)C(C)OC(=O)C2CCC(=O)N2)cc1 (configuration not stated) | -13 | 2 | 98 | 99
CCC(C(=O)N1CC2(C)CC1CC(C)(C)C2)N1C(=O)c2ccccc2C1=O (configuration not stated) | 34 | -5 | 100 | 102
c1ccc(-c2nc(C34CC5CC(CC(C5)C3)C4)cs2)cc1 | -9 | 12 | 104 | 109
COC(=O)C1=CC(C(=O)c2ccccc2)=NN(c2ccccc2)C1C(=O)OC (configuration not stated) | -55 | -10 | 135 | 150
O=C(c1ccc2c(c1)sc1nc(-c3ccccc3)cn12)N1CCCCC1 | 0 | -14 | 100 | 102
CCc1cc(C(=O)Cc2ccc3c(c2)OCCCO3)c(O)cc1OC | 4 | -4 | 100 | 103
COc1cc2c(cc1OC)CN(CC(=O)NC(=O)NC1CCCCC1)CC2 | -30 | -5 | 107 | 113
O=C1CC(Nc2ccc3c(c2)OCO3)C(=O)N1C1CCCCC1 (configuration not stated) | -1 | -10 | 101 | 103
NC(=O)CSc1ccc2ccccc2n1 | -6 | 24 | 98 | 104
Cc1cc2oc(C(=O)NC3CCS(=O)(=O)C3)cc(=O)c2cc1C (configuration not stated) | 4 | 6 | 102 | 100
CCOC(=O)Nc1ccc2c(c1)N(C(=O)CCN(C)C)c1ccccc1S2 | -8 | 13 | 99 | 103
O=C(CSc1ccc2ccccc2c1)N1CCN(c2ccccc2F)CC1 | nt | 5 | 102 | 97
CCOc1cc2c(cc1OCC)C1CC(=O)N(c3cccc(C)c3)C(=O)N1CC2 (configuration not stated) | 10 | 113 | 100 | 102
c1coc(-c2nnc(-c3cc4c(s3)CCCC4)o2)c1 | -13 | 108 | 103 | 104
COc1ccc(C=Nc2ccc(C(N)=O)cc2)cc1 | 14 | 11 | 105 | 99
O=C(O)CCCOc1cccc2cccnc12 | -53 | 5 | 100 | 104
COc1cc(OC)cc(C(c2[nH]c(C)nc2O)C(C#N)C#N)c1 (configuration not stated) | -91 | nt | 76 | 199
Cc1onc(-c2c(F)cccc2Cl)c1C(=O)NC1C2CC3CC(C2)CC1C3 (configuration not stated) | -14 | -18 | 101 | 98
CCC(C)N(C(=O)Nc1cc(C)ccc1OC)C(C)CC (configuration not stated) | -17 | -6 | 100 | 101
Cc1ccc(C)c(C2C(C#N)=C(N)OC3=C2C(=O)CCC3)c1 (configuration not stated) | 11 | -2 | 101 | 102
CCN(CC)C(=O)CN1C(=O)COCC1=O | 26* | -9 | 99 | 104
Cc1onc(-c2ccccc2)c1CNC(=O)c1ccccc1C(=O)O | -15 | -6 | 102 | 103
COC(=O)C1=C(Nc2ccc(OC(=O)c3cccc(C(F)(F)F)c3)cc2)CSC1 | -13 | -7 | 104 | 113
OCCCNCc1cc(Cl)c2c(c1)OCCCO2 | 4 | -5 | 105 | 107
O=c1ccc2cc(S(=O)(=O)n3ccnc3)ccc2o1 | 13 | 10 | 99 | 101
Cc1ccc(S(=O)(=O)NN2C(=O)S/C(=C/c3ccccc3)C2=S)cc1 | -86 | 2 | 102 | 105
CCOc1ccc(CCNC(=O)Nc2ccc3snnc3c2)cc1 | -52 | 6 | 101 | 99
O=C(OCCN1C(=O)c2ccccc2C1=O)C1CCN(S(=O)(=O)c2cccs2)CC1 | -6 | -8 | 105 | 105
O=c1[nH]c(=O)n(-c2ccc(Cl)cc2)c2c1CN(CCCc1ccccc1)CN2 | 19 | 4 | 101 | 104
CN(Cc1ccccc1)C1=CC2=CC(=C(C#N)C#N)CCC2CC1 (configuration not stated) | -28 | 5 | 45 | 251
O=C(CCc1nc(-c2ccccc2)no1)NC1CCCCC1 | -16 | -1 | 104 | 102
CCCNC(=O)CCc1nc(-c2ccccc2C)no1 | 14 | 18 | 103 | 100
CC1CCCCC1NC(=O)/C=C/c1ccc2c(c1)OCO2 (configuration not stated) | nt | -68 | 102 | 104
CCOC(=O)c1oc(C(=O)OCC)c(O)c1O | 1 | 1 | 108 | 102
CCN(c1cccc(C)c1)S(=O)(=O)c1c[nH]c(C(=O)OC)c1 | 2 | -3 | 103 | 97
CCN(C(=O)c1ccc(S(=O)(=O)N(C)C)cc1)c1nc2c(C)cccc2s1 | -3 | 23 | 97 | 87
CCOC(=O)C1N=C2C(=[N+]([O-])C1N)COC(C)(C)/C2=N\O (configuration not stated) | -254 | -11 | 97 | 103
Nc1cc(N)c2c(c1)Oc1ccccc1CC2 | 25 | 31 | 97 | 112
CC1CCN(CC(=O)Nc2ccc(Cl)cc2Cl)CC1 | -16 | -2 | 102 | 102
Cc1cccc(NS(=O)(=O)c2ccc3c(c2)CC(C)N3C(=O)C2CC2)c1 (configuration not stated) | -9 | -8 | 100 | 101
N#CC(C(=O)NCc1ccccc1)c1nc2ccccc2nc1Cl (configuration not stated) | nt | 40 | 99 | 104
Cc1cc(NC(=O)CN2CC(C)CC(C)C2)nc2c1c(=O)oc1ccccc12 (configuration not stated) | 16 | 20 | 103 | 102
COc1ccc(NC(=O)N2CCC(CN3CCCCC3)CC2)cc1 | -9 | -3 | 100 | 100
Cc1cc(C)c(C#N)c(Oc2ccccc2Br)n1 | -21 | -28 | 104 | 112
Cc1[nH]c2ccccc2c1C(=O)Cn1c(=O)oc2ccccc21 | -8 | -2 | 98 | 106
CSc1nnc(SCC(N)=S)s1 | -10 | 33 | 103 | 108
CC(=O)N1N=C(C)CC1c1ccc(OCc2ccccc2)cc1 (configuration not stated) | -26 | -10 | 102 | 99
O=c1sc2ccccc2n1COc1ccccc1 | 5 | nt | 106 | 96
Cc1c(S(=O)(=O)c2ccc(Cl)cc2)csc1C(=O)NC1CCN(Cc2ccccc2)CC1 | -14 | -10 | 102 | 104
CCCC(=O)NCc1ccc(OC)cc1 | -21 | -19 | 100 | 104
CC1(NC(=O)CSC(C)(C)C)CCS(=O)(=O)C1 (configuration not stated) | -13 | -8 | 106 | 111
NC(=O)COC(=O)c1ccc(Cl)cc1N | nt | 89 | 100 | 107
